Sa helicase inh – blocks Staphylococcus aureus DNA helicase | purified S. aureus helicase, fluorescence unwinding assay; about half of the hits fall short of the stated cut | inhibition, %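 (tested at about 80 µM)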 | 120,000 compounds, 0.05% hits | AID 485395;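 active = both duplicates at 50% or more, or one of them with a favoured structure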;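 note: 0% = mean of negative control wells and 100% = mean of positive control wells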
MgrA DNA FP – alters Staphylococcus aureus MgrA binding to DNA; fluorescence polarization; inhibition, %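 (about 10 µg/mL by stock and volumes)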; 84,000 compounds, 0.13% hits; AID 602314;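 active = above 50% in either of two replicates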;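 note: 0% = protein plus DNA without compound and 100% = DNA alone without protein; higher means less MgrA bound to DNA so lower polarization; one replicate is shown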
Starred values were filed as active, the others as inactive; . = no result given. These rows are one share of the data (hit frequency here may not be typical).

No. | Sa helicase inh | MgrA DNA FP | Compound
1 | -9.0 | . | Cc1ccc(S(=O)(=O)N(CC(N)=O)CC(O)Cn2c3ccccc3c3ccccc32)cc1 (stereo not given)
2 | -10.0 | . | CSc1ncc(C(=O)Nc2ccc3c(c2)OCCO3)n1-c1ccccc1
3 | -10.0 | . | CC(C)(C)c1ccc(C(=O)NCC(=O)NCc2ccccn2)cc1
4 | 0.0 | . | CCSc1nnc(Cn2c(=O)sc3ccccc32)n1-c1ccccc1
5 | 9.0 | 0.2 | COCC(=O)N1CCN(c2ccccn2)CC1
6 | 1.0 | . | O=C(COc1ccccc1F)c1ccc(O)cc1O
7 | -13.0 | . | Cc1nn(CCC#N)c2c1C(c1ccc3c(c1)OCO3)C1=C(CC(C)(C)CC1=O)N2 (stereo not given)
8 | -2.0 | . | CCOCCCN=C1SCC(CC)N1C(=O)c1ccc(C#N)cc1 (stereo not given)
9 | . | 0.6 | CC1CN(c2ncc(C(=O)OCC3CC3)c(C(F)(F)F)n2)CC(C)O1 (stereo not given)
10 | 9.0 | -0.7 | Nc1cc(C(=O)OCC(=O)NC2CCCCCC2)ccc1Cl
11 | -11.0 | . | Cc1cc(C(N)=O)c(C)n1-c1ccc(-c2nc3ccccc3[nH]2)cc1
12 | . | -1.3 | c1ccc(-c2nsc(N3CCOCC3)n2)cc1
13 | 5.0 | 0.3 | CCOc1ccccc1NC(=O)N1CCOc2ccc(Cl)cc21
14 | -14.0 | . | Cc1cnc(C(=O)OCC(=O)N2CC(C)CC(C)C2)cn1 (stereo not given)
15 | 5.0 | 0.6 | Cc1nn(CO)c(C)c1Sc1ccc(Br)cc1
16 | 1.0 | . | COc1ccccc1NC(=S)N(CCN(C)C)C(C)c1ccncc1 (stereo not given)
17 | . | 1.6 | O=C1c2ccccc2-c2ccc(I)cc21
18 | -11.0 | . | Brc1ccc(Oc2ccc(Nc3nc4ccccc4o3)cc2)cc1
19 | 0.0 | . | CCOC(=O)N1CCN(C(=O)CS(=O)Cc2nc(-c3cccc(C)c3)oc2C)CC1 (stereo not given)
20 | 15.0 | . | O=C(COC(=O)C1=NNC(=O)CC1)NCc1ccco1

More compounds
No. | Sa helicase inh | MgrA DNA FP | Compound
21 | 4.0 | 2.4 | Nc1nnc(SCC(=O)N2c3ccccc3Sc3ccc(C(F)(F)F)cc32)s1
22 | . | 1.5 | O=C(CSc1nnc(CCCN2C(=O)c3cccc4cccc(c34)C2=O)n1-c1ccccc1)NCCCO
23 | -14.0 | . | CSc1nc2cc(NC(=O)c3cccs3)ccc2s1
24 | -7.0 | -1.6 | O=C(COc1ccc(Cl)cc1)NCCC12CC3CC(CC(C3)C1)C2
25 | 9.0 | . | COc1cc(/C=C/C(=O)N2CCC(C)CC2)ccc1OCc1c(C)noc1C
26 | -1.0 | -3.3 | Cc1ccc(NN)cc1
27 | -15.0 | . | CN1CCN(C(c2ccccn2)c2cc(Cl)c3cccnc3c2O)CC1 (stereo not given)
28 | 5.0 | 1.8 | CN(C)c1nc(N)nc(CSc2ccccn2)n1
29 | 0.0 | . | Cc1noc(C)c1CSc1nnc(-c2ccc(F)cc2)c2ccccc12
30 | -16.0 | -0.2 | O=C(COC(=O)CCc1c[nH]c2ccccc12)Nc1ccccc1Cl
31 | 5.0 | 1.9 | CCc1ccc(NC(=O)Cn2c(=O)n(CCc3ccccc3)c(=O)c3c4c(sc32)CCCC4)cc1
32 | . | -0.2 | NS(=O)(=O)c1ccc(Cl)c(Cl)c1
33 | 4.0 | -0.3 | CC(=O)SCCC(=O)N1CCn2c3c(c4cc(C)ccc42)CCCC31 (stereo not given)
34 | 32.0 | . | O=C(CC1CC(=O)Oc2ccccc21)Nc1nccs1 (stereo not given)
35 | -10.0 | . | Cc1nn(C)c(C)c1NC(=O)CNC(=O)Cc1cccc2ccccc12
36 | 7.0 | . | Clc1cc(N2CCCC2)nc(N2CCCC2)n1
37 | -18.0 | -2.6 | Cn1c(-c2ccccc2)c[n+]2c1CCCCC2
38 | 7.0 | -0.9 | CCOc1ccc(/C=C/C(=O)Sc2ccc(Cl)cc2)cc1
39 | -15.0 | . | CCCNC(=O)CCc1nnc2ccc(N(CC)CC)nn12
40 | . | -4.0 | C/C(=N\N=C(/C)c1ccc(F)cc1)c1ccc(F)cc1

Carrying on:
No. | Sa helicase inh | MgrA DNA FP | Compound
41 | . | -0.3 | O=C(c1ccccc1Cl)N1N=C(c2ccccc2)CC1c1nc2ccccc2[nH]1 (stereo not given)
42 | 14.0 | . | Cc1ccc2cccc(NC(=O)C(F)(F)F)c2n1
43 | 8.0 | -0.2 | CC(=O)Nc1ccc(N2C(=O)CSC2c2ccccc2)cc1 (stereo not given)
44 | 13.0 | . | CC(C)n1c(O)c(N=NC(=S)NC2CCCCC2)c2ccccc21
45 | 12.0 | 0.8 | O=C1CC(c2ccccc2)CC(O)=C1C=NCCN1CCOCC1 (stereo not given)
46 | . | -2.5 | N#Cc1nccnc1SCc1ccc(Cl)cc1Cl
47 | 12.0 | . | O=C(c1ccc(-n2ccc3ccccc32)s1)N1CCCCC1
48 | . | -2.6 | CC(C)c1ccc(C(CC(=O)O)NC(=O)C2CCCCC2)cc1 (stereo not given)
49 | 19.0 | . | CCCCn1nnnc1COC(=O)c1c(-c2c(F)cccc2Cl)noc1C
50 | 11.0 | -3.2 | CC(C)(O)C#CCN1CCCCC1
51 | . | -3.4 | CCN(C(=O)c1cnccc1C(F)(F)F)c1ccc(Cl)cc1
52 | . | -0.1 | O=C1Nc2ccccc2/C1=C\c1ccc(C(F)(F)F)cc1
53 | 3.0 | . | c1coc(Cn2c(-c3ccco3)nc3ccccc32)c1
54 | 5.0 | . | CCN1CCN(CCNC(=O)c2ccc(N3CCCc4ccccc43)s2)CC1
55 | -2.0 | . | Cc1ccc(N2C(=O)c3ccc(Oc4cccc(N)c4)cc3C2=O)c(C)c1
56 | 10.0 | . | COc1ccc(CNC(=O)C2CCN(S(=O)(=O)N3CCCCC3)CC2)cc1
57 | 11.0 | 3.1 | CN1CCN(C(=O)CN(c2cccc(Br)c2)S(=O)(=O)c2ccccc2)CC1
58 | 17.0 | . | Cc1cc(-n2c(C)cc(CNCC3(N4CCOCC4)CCCCC3)c2C)no1
59 | 9.0 | . | CCOc1ccc2sc(NC(=O)CN3C(=O)C4C5C=CC(C5)C4C3=O)nc2c1 (stereo not given)
60 | -7.0 | . | COC(=O)Cn1nc(C)c2ccccc2c1=O

Other structures.
No. | Sa helicase inh | MgrA DNA FP | Compound
61 | 4.0 | 1.4 | CCOC(=O)Cn1c2c(c(-c3ccccc3OC)cc1=O)CCCC2
62 | -9.0 | . | Cc1ccc2c(c1)CCCN2CC(=O)c1ccc2c(c1)OCCO2
63 | 4.0 | . | Cc1cc2c(cc1S(=O)(=O)NCCc1ccccc1)n(C)c(=O)c(=O)n2C
64 | . | -0.7 | O=C(Nc1cccc(F)c1C(=O)Nc1ccc(F)c(Cl)c1)c1cccc(C(F)(F)F)c1
65 | . | -0.9 | FC(F)(F)c1cccc(NC(=S)NCCNc2nccc(C(F)(F)F)n2)c1
66 | 1.0 | . | CCC(C)N(C)Cc1cccc(C2(O)CCN(S(=O)(=O)c3ccc(F)cc3)CC2)c1 (stereo not given)
67 | . | -2.2 | CCc1cccc(CC)c1NC(=S)Nc1ccc(C)cc1
68 | 6.0 | . | Cc1cccc(C)c1NC(=O)CN(C)C(=O)c1ccccc1OC(F)F
69 | 42.0 | . | COc1ccc(-c2noc(CN3CCC(C(=O)N(C)c4cc(C)ccc4C)CC3)n2)cc1OC
70 | 7.0 | -1.8 | Cc1ccc(C)c(SCC(=O)OCC(=O)N2C(C)CCCC2C)c1 (stereo not given)
71 | -8.0 | 1.1 | O=C1CC2(Oc3ccccc3O2)C(=O)NN1
72 | -11.0 | 1.0 | CCOC(=O)N1CCC(NC(=O)C(Cc2ccccc2)NC(=O)c2ccco2)CC1 (stereo not given)
73 | 1.0 | . | N#Cc1ccc(NC2=NCCC2)cc1
74 | 7.0 | 0.6 | N#C/C(C(=O)N1CCCCC1)=C1/C(=O)Nc2ccccc21
75 | -2.0 | 1.0 | CC(=O)Nc1ccc(NC(=O)/C=C/c2ccccc2)cc1
76 | -21.0 | . | O=C(OCC(=O)N1CCNC1=O)c1cc(-c2ccc(Cl)cc2)nc2ccccc12
77 | 2.0 | . | CN(CC(=O)Nc1ccc(Cl)cc1)Cc1cc(=O)n2ccsc2n1
78 | -26.0 | . | Cc1ccc(C2Nc3ccc(C(=O)c4ccccc4)cc3NC3=C2C(=O)CCC3)o1 (stereo not given)
79 | -8.0 | . | CCC(=O)N(C/C=C/c1ccccc1)c1ccc2c(c1)OCCO2
80 | -1.0 | . | CC1Cc2ccccc2N1CC(=O)Nc1ccc2c(c1)OCCCO2 (stereo not given)

(further entries)
No. | Sa helicase inh | MgrA DNA FP | Compound
81 | -6.0 | . | CCOC(=O)c1sc(N)c(C(=O)OCC)c1CSc1nc2ccccc2s1
82 | 7.0 | . | O=C(O)CCn1c(-c2ccccc2)cc2c1CCCC2=O
83 | 20.0 | 0.8 | Cc1ccc(-c2nc(CS(=O)CC(=O)NCCN3CCCCC3C)c(C)o2)cc1 (stereo not given)
84 | -23.0 | 2.4 | O=C(NCc1ccco1)c1cc(-c2cccs2)nc2ccccc12
85 | -1.0 | -4.8 | Cc1cnnc(/N=C(\N)Nc2ccc(S(=O)(=O)Nc3nc(C)ccc3C)cc2)n1
86 | . | -0.1 | N#Cc1cccc(NC(=O)c2c(F)cccc2F)c1
87 | 4.0 | . | CN1C(=O)/C(=C\c2ccc(-c3ccccc3)o2)SC1=S
88 | . | -1.8 | N=C1SCC(=O)N1c1ccc(F)c(Cl)c1
89 | 27.0 | . | CCCNS(=O)(=O)c1ccc(CN2C(=O)c3cccnc3C2=O)cc1
90 | 2.0 | . | CCCN(CCC)C(=O)CSc1nc2ncccc2o1
91 | . | 0.4 | CCOC(=O)C1=C(C)N=c2s/c(=C/c3ccc(OC(C)=O)c(OCC)c3)c(=O)n2C1c1cccs1 (stereo not given)
92 | . | 1.9 | CCOC(=O)C1=C(C)NC(SCC(=O)C23CC4CC(CC(C4)C2)C3)=C(C#N)C1c1cccs1 (stereo not given)
93 | -1.0 | 1.3 | Cc1cc(C)c2c(=O)[nH]n(C(C)C)c2n1
94 | 1.0 | . | C=CCn1c(=N)n(CC(O)c2ccc(C)cc2)c2ccccc21 (stereo not given)
95 | -8.0 | . | Cc1ccc(S(=O)(=O)N2CCN(C(=O)C3CCCN3C(=O)OC(C)(C)C)CC2)c(C)c1 (stereo not given)
96 | -19.0 | . | CCCc1cc(C(=O)Cc2ccc3c(c2)OCO3)c(O)cc1O
97 | 3.0 | . | CC1CCCCC1NC(=O)CCS(=O)(=O)c1cccc2nonc12 (stereo not given)
98 | 5.0 | -1.7 | O=C(Cc1ccccc1)Nc1cccc(C(=O)OCC(=O)c2ccc(Cl)cc2)c1
99 | 0.0 | . | Cc1cccn2c(=O)c(/C=N/NC(=O)c3ccncc3)c(N3CCCC3)nc12
100 | -8.0 | 2.0 | CC(C)(C)c1ccc(OCCCn2ccnc2)cc1

(continued)
No. | Sa helicase inh | MgrA DNA FP | Compound
101 | 23.0 | 0.4 | C=CCn1c(N)cc(=O)nc1SCC(=O)Nc1ccccn1
102 | -19.0 | . | Nc1ccc2c3c(cccc13)CC2
103 | 19.0 | . | O=C(NCCC1=CCCCC1)NCc1noc2ccccc12
104 | . | -1.8 | CN(C)CC(C)(C)CN(CCC#N)S(=O)(=O)c1cccc2nsnc12
105 | -2.0 | -3.0 | COc1ccc(C(=O)N2CC(C)OC(C)C2)cc1 (stereo not given)
106 | 1.0 | . | COc1ccc(Br)cc1CO
107 | 0.0 | -3.1 | O=C(O)c1cccc(NC(=O)C2CCCO2)c1 (stereo not given)
108 | -1.0 | -0.6 | Cc1cc(C)c(C#N)c(SCC(O)CS(=O)c2ccc(C(C)(C)C)cc2)n1 (stereo not given)
109 | -34.0 | -1.1 | Cc1ccc(CNCc2ccc(Br)cc2)cc1
110 | -12.0 | . | CN1/C(=C\C(=O)COC(=O)C2=NNC(=O)CC2)C(C)(C)c2ccccc21
111 | 5.0 | . | O=C(NCCc1c[nH]c2ccccc12)c1cccc(S(=O)(=O)N2CCCC2)c1
112 | 0.0 | 4.2 | CCSc1nc(NC(C)=O)nn1C(C)=O
113 | -1.0 | 3.2 | O=c1c2c(n3nnnc3n1-c1ccccc1)-c1ccccc1CC21CCCC1
114 | -2.0 | . | Cc1sc2ncn(CC(=O)N3c4ccccc4CC3C)c(=O)c2c1C (stereo not given)
115 | 2.0 | . | Cc1nc2nc(NC(=O)C(C)Oc3ccccc3)nn2c(C)c1Cl (stereo not given)
116 | . | -1.7 | N#C/C(=C\Nc1ccc(Cl)cc1)c1ccc(Cl)cc1
117 | -30.0 | . | CCc1cccc(C)c1N(C(=O)Cn1c(CN2CCOCC2)nc2ccccc21)C(C)COC (stereo not given)
118 | 11.0 | . | CC1CCCCC1NC(=O)c1ccc(CSc2nc3ccncc3[nH]2)cc1 (stereo not given)
119 | -7.0 | -2.9 | CCOC(=O)c1ccc(CNC(=O)c2ccc(S(=O)(=O)c3ccccc3)cc2)o1
120 | -19.0 | . | CN(C1CCCCC1)S(=O)(=O)N1CCCC(C(=O)N2CCC(C(N)=O)CC2)C1 (stereo not given)

Next compounds
No. | Sa helicase inh | MgrA DNA FP | Compound
121 | . | -1.6 | COc1ccc(C2=NN(C(=O)CCCC(=O)O)C(c3cn(-c4ccccc4)nc3-c3ccccc3)C2)cc1 (stereo not given)
122 | . | -3.1 | Cc1onc(-c2c(Cl)cccc2Cl)c1C(=O)Nc1ccccc1C(=O)NNc1c(Cl)cc(Cl)cc1Cl
123 | -16.0 | . | Nc1cc(=O)nc2ccccn12
124 | 8.0 | 5.0 | N#CC(C#N)C1CCS(=O)(=O)C1 (stereo not given)
125 | 18.0 | 1.0 | Cc1ccc(C)c(C(=O)NC2CCCCC2)c1

Screens (PubChem)
